High-throughput results deposited in PubChem by several laboratories.
PKD1 inh: blocks activity of human protein kinase D1 | Q15139 | PKD1 kinase fluorescence polarization assay | inhibition, %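 (about 10 µM by stock and volumes)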 | 200,000 tested, 0.056% active | AID 797;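 active means inhibition of 50% or more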;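 further: controls were vehicle for no effect and a reference inhibitor for full effect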
GALR2 agonist: agonists of human galanin receptor 2 (GALR2); AID 803; GALR2-expressing cells, agonist activation read-out; activation, %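 (tested at 5 µM)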; 140,000 tested, 0.48% active;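 active means above mean plus 3 SD of all compounds, about 5% in these data, not always enough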;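 further: 0% = vehicle buffer wells and 100% = reference agonist at full effect; tested in CHO reporter cells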
Target sequence (O43603 whole entry, looked up): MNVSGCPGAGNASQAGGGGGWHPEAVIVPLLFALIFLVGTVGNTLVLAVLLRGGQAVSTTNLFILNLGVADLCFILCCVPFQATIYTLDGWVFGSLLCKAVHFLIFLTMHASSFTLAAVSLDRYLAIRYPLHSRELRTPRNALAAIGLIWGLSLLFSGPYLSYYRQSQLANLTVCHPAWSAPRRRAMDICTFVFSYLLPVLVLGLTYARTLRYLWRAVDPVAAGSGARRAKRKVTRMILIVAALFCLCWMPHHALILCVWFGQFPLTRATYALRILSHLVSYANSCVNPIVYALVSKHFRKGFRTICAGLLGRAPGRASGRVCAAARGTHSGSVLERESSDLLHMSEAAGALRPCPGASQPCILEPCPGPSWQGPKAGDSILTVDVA
Insulin prom inh: TRM-6 insulin promoter activity inhibition; inhibition, % at 2 µM; AID 1273; TRM-6 cells (human fetal islet line), insulin promoter-eGFP reporter, imaging; reporter expression induced with tamoxifen; 130,000 tested, 0.9% active;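 active means inhibition above the mean plus 3 SD, with well images judged a real hit on visual review, cut at about 60% in these data, passing the limit was not always enough; inconclusive means inhibition over the cutoff but images rejected on review; inactive means inhibition not above the cutoff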
RGS16-Gao HTS: regulators of human RGS16-Galphao interaction. O15492+P09471. bead-based flow cytometry RGS16-Galphao binding, fluorescence; actives lie on both sides. binding response (% of control), % at 10 µM. 220,000 tested, 0.38% active;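 active means below 25% or above 175%, edge rows of some plates excepted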;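 further: Galphao activated by GDP with aluminum fluoride before binding; 100% = wells without compound and 0% = beads without RGS; some results beyond the cut were filed as inactive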
Target sequence (O15492 whole entry, looked up): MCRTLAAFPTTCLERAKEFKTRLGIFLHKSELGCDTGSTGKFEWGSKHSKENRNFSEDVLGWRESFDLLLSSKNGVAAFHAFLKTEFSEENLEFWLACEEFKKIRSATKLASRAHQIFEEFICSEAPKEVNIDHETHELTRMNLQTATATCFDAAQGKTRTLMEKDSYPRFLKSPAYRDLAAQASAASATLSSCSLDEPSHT
Target sequence (P09471 whole entry, looked up): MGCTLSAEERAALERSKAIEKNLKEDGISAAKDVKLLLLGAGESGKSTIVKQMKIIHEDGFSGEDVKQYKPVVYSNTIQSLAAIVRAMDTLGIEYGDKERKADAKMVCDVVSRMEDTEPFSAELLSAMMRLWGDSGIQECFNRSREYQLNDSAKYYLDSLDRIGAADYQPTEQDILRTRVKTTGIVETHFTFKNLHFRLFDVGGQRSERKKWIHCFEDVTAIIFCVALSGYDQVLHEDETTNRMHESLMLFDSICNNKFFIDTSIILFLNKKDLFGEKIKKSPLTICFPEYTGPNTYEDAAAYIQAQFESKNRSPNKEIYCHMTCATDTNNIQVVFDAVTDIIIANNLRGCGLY
HSV replic up: HSV replication enhancement | AID 1956 | 220,000 tested, 0.005% active | HSV replication augmentation in cells, fold increase | maximum fold increase;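 active means peak rise of 1.5-fold or more in the series; inconclusive means self-fluorescent or not available for retest; tested in PC3 cells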;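 further: first round at 10 µM; read as green reporter fluorescence; hits show the peak of a series up to 25 µM; 1 = signal of infected wells without compound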
Insulin prom inh cell count: second read-out of Insulin prom inh, no call of its own (marks repeat the call); normalized cell count, %; measured here: cell count, toxicity; reference of the scale not given here;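 cells exposed to compound for 48 h; stained nuclei by imaging scaled within each plate; lower means fewer cells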
HSV replic up primary fold: also measured in HSV replic up; calls as there; fold increase; compound at 10 µM; measured here: primary screen fold increase 10 uM; tested in PC3 cells;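 GFP signal in the first replicate; 1 = infected wells without compound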
An asterisk follows results filed as active; i = inactive; ? = inconclusive; nt = no result given. This is a random part of the collection; any-hit rate near 1.2%.

SMILES | PKD1 inh | GALR2 agonist | Insulin prom inh | Insulin prom inh cell count | RGS16-Gao HTS | HSV replic up | HSV replic up primary fold
O=C(NCC1CCCO1)c1ccc(S(=O)(=O)N2CCC(c3nc4ccc(Cl)cc4[nH]3)CC2)cc1 (stereo unspecified) | 0 | -1.3 | -29 | 100 | 109 | i | 0.86
CCCn1nnc(NC(=O)c2ccc(-c3cccc(Cl)c3)o2)n1 | -5 | -3.3 | -11 | 125 | 102 | i | 0.94
Cc1cc(NC(=O)Cc2ccccc2)ccc1NC(=O)c1cccs1 | -4 | nt | -10 | 131 | 115 | i | 0.92
COc1ccc(-c2nc3ccccc3nc2-c2ccccc2)cc1 | -1 | nt | 61 | 38 | 99 | i | 1.2
c1ccc(Nc2nc(-c3ccncc3)nc3ccccc23)cc1 | 1 | 0.2 | nt | nt | 101 | i | 1
Cc1ccc(C(=O)OCC2OC3OC(C)(C)OC3C2O)cc1 (stereo unspecified) | 9 | 0.1 | -10 | 119 | 138 | i | 0.99
COc1ccc(NC(=S)NCc2ccc3c(c2)cc(C)n3C)cc1 | -4 | -1.3 | 51 | 136 | 96 | nt | nt
Cc1cc(C(=O)CCl)c(C)n1-c1c(C)n(C)n(-c2ccccc2)c1=O | 2 | nt | nt | nt | 107 | i | 0.96
COc1ccc(C(=O)C[n+]2ccc(N(C)C)cc2)cc1 | nt | nt | nt | nt | 105 | i | 0.94
CCCn1c(N)c(C(c2ccc(C(=O)OC)cc2)N2CCN(c3ccccc3)CC2)c(=O)[nH]c1=O (stereo unspecified) | 7 | -1.1 | nt | nt | 102 | i | 0.82
Cc1ccc(CN2CCN(/N=C/c3cccn3C)CC2)c(C)c1 | 3 | nt | -133 | 121 | 102 | i | 0.99
Cc1ccc(S(=O)(=O)NC2(C(F)(F)F)NC(=O)N(CCc3ccccc3)C2=O)cc1 (stereo unspecified) | 0 | nt | nt | nt | 104 | ? | nt
CC(C)C(NC(=O)c1ccccc1F)C(=O)OCC(=O)c1ccc(F)cc1 (stereo unspecified) | 2 | nt | -29 | 91 | 105 | i | 0.94
COC(=O)c1ccc(/C=N\n2c(C)nnc2C)cc1 | 4 | -2.4 | -7 | 94 | 82 | i | 1.1
CC1CC2=C(C(=O)O1)C(c1ccccc1)Nc1ccccc1N2 (stereo unspecified) | 7 | -0.7 | 15 | 91 | 120 | i | 0.9
Cc1ccc(CNC(=O)c2cc3c(=O)n(C)c4ccccc4c3n2C)cc1 | 2 | -2.7 | nt | nt | 100 | i | 1.1
COc1ccccc1/C=N/NC(=O)CO | 1 | nt | nt | nt | 103 | i | 0.89
CCn1c2ccc(Cl)cc2c2nc3ccccc3nc21 | 1 | -0.1 | 27 | 111 | 104 | i | 1.1
Clc1ccc(Oc2nc(N3CCOCC3)nc(N3CCOCC3)n2)c(C2CCCCC2)c1 | -5 | -1.7 | 23 | 89 | nt | i | 0.95
CC[n+]1cccc(-c2nc3ccccc3s2)c1 | -6 | nt | -14 | 96 | 104 | i | 1.1
S=c1nc(C2CCCCC2)n(-c2ccccc2)[nH]1 | 0 | nt | 36 | 68 | 106 | i | 0.9
COc1ccc(NC(=O)CSc2ccccc2)cn1 | -5 | nt | 40 | 81 | 94 | i | 0.93
CC(OC1=CC(=O)CCC1)C(=O)c1ccccc1 (stereo unspecified) | -5 | -0.9 | -35 | 64 | 103 | i | 0.88
COC(=O)C1=C(C)Nc2nnnn2C1c1ccccc1Cl (stereo unspecified) | -4 | -0.1 | -8 | 85 | 109 | i | 0.92
CCOC(=O)C1=C(O)C(=O)N(c2ccc(S(N)(=O)=O)cc2)C1c1ccc(Cl)cc1 (stereo unspecified) | 2 | -1.6 | -29 | 53 | 106 | i | 1
O=C(/C=C/c1ccco1)NCC(=O)N/N=C/c1ccccc1[N+](=O)[O-] | -1 | nt | 25 | 40 | 114 | i | 1.1
CC(/C=C/c1ccccc1)=N/NC(=O)c1cnccn1 | -3 | -1.9 | 67 | 116 | 107 | i | 0.94
O=C(NC1CCCCC1)N(CCN1CCOCC1)Cc1cc2cc3c(cc2[nH]c1=O)OCCO3 | -4 | -3.5 | nt | nt | 100 | i | 1.1
CN(C)c1oc(-c2ccc(OCc3ccccc3)cc2)nc1C#N | 1 | -2.0 | -64 | 86 | 102 | i | 1
CC(C)Nc1nc(C#N)nc(NC(C)C)n1 | -15 | 0.4 | nt | nt | -32 | i | 0.86
Cc1cccc(NC(=O)CN2C(=O)CSC2=O)c1 | -8 | nt | -14 | 98 | 107 | i | 0.99
COc1ccc(Nc2nnc(C)c(=O)[nH]2)c(OC)c1 | nt | nt | nt | nt | 102 | i | 1
N#CC12CCCCC1CC1CCCCC1(C#N)N2CCO (stereo unspecified) | -1 | -1.1 | 23 | 161 | 105 | i | 1
O=C(CC1C(=O)N(c2ccccc2)C(=O)N1C1CCCCC1)Nc1ccccc1 (stereo unspecified) | -13 | -2.1 | -21 | 90 | 101 | i | 1
Cc1cc(C)cc(NC(=S)N(CCN2CCCCC2)Cc2ccco2)c1 | -3 | nt | -53 | 80 | 96 | i | 0.9
O=C(CCC1CCCCC1)NCCN1C2=NC[C@H](Cc3ccc(O)cc3)N2C[C@H]1Cc1ccc(O)cc1 | 1 | nt | nt | nt | 106 | i | 1
N#Cc1cc2c(nc1SCC(=O)N1CCOCC1)CCCCC2 | 8 | -3.0 | nt | nt | 88 | i | 0.88
COc1ccccc1NC(=O)Cn1cnc2c(cnn2-c2ccccc2)c1=O | -2 | -0.3 | -50 | 148 | 100 | i | 1.1
Cc1ccc(-c2csc(NC(=O)CSc3ncn(-c4ccccc4)n3)n2)cc1 | -4 | -2.5 | -3 | 123 | 99 | i | 0.93
CC(C)(C)C(=O)N1N=C(c2ccc(NS(C)(=O)=O)cc2)CC1c1cccs1 (stereo unspecified) | -4 | nt | -40 | 97 | 100 | i | 0.8

As a short view, part of the list above.
SMILES | PKD1 inh | GALR2 agonist | Insulin prom inh | Insulin prom inh cell count | RGS16-Gao HTS | HSV replic up | HSV replic up primary fold
O=C(NCC1CCCO1)c1ccc(S(=O)(=O)N2CCC(c3nc4ccc(Cl)cc4[nH]3)CC2)cc1 (stereo unspecified) | 0 | -1.3 | -29 | 100 | 109 | i | 0.86
CCCn1nnc(NC(=O)c2ccc(-c3cccc(Cl)c3)o2)n1 | -5 | -3.3 | -11 | 125 | 102 | i | 0.94
Cc1cc(NC(=O)Cc2ccccc2)ccc1NC(=O)c1cccs1 | -4 | nt | -10 | 131 | 115 | i | 0.92

New compounds follow.
SMILES | PKD1 inh | GALR2 agonist | Insulin prom inh | Insulin prom inh cell count | RGS16-Gao HTS | HSV replic up | HSV replic up primary fold
CC(C)(C)NC(=O)CSc1nc2ccc(Nc3nc(N4CCOCC4)nc(N4CCOCC4)n3)cc2s1 | -1 | nt | nt | nt | 100 | i | 0.6
Cc1ccc(C2=NC(C)(C)N=C2SCC(=O)Nc2ccc(Cl)cc2)cc1 | -5 | -1.9 | -32 | 119 | 326 | i | 0.59
COc1ccc(N2CCN(C(=O)CSc3nnc(C)c(=O)[nH]3)CC2)cc1 | 9 | -2.4 | -7 | 91 | 108 | i | 0.98
Cc1ccc(NC(=O)CN2C(=O)N/C(=C/c3ccc(C)o3)C2=O)cc1 | 3 | -1.4 | -10 | 129 | 95 | i | 1
O=C(CCS(=O)(=O)c1ccccc1)Nc1cccc(-c2nc3ccccc3s2)c1 | -8 | 0.1 | -36 | 122 | 90 | i | 0.87
CCn1ncc(/C=N\NC(=O)Cc2ccc([N+](=O)[O-])cc2)c1C | -10 | -0.4 | 14 | 189 | 102 | i | 1
O=C(N/N=C/c1cccc(F)c1)c1c(O)c2c([nH]c1=O)CCCC2 | -5 | -0.9 | -12 | 126 | 75 | i | 1.1
O=C(CSc1nnc(Cc2csc(Nc3cccc(Cl)c3)n2)o1)N1CCc2ccccc21 | -10 | 0.5 | nt | nt | 104 | i | 1.1
CCOC(=O)c1c(CN2CCN(C)CC2)oc2ccc(O)cc12 | 4 | -0.8 | -44 | 121 | 85 | i | 0.96
COc1ccc(-c2ccnc3cc(C(=O)O)nn23)cc1 | 3 | nt | nt | nt | 113 | i | 1.1
Cc1c(NC(=O)c2cc3nc(-c4ccccc4)cc(C)n3n2)c(=O)n(-c2ccccc2)n1C | -15 | 0.5 | nt | nt | 83 | i | 0.99
Brc1ccccc1OCCNCc1ccccc1 | -2 | nt | nt | nt | 105 | i | 0.94
CCOC(=O)c1[nH]c2ccccc2c1NC(=O)c1ccc(S(=O)(=O)N(C)C)cc1 | -6 | -0.4 | 41 | 112 | 107 | nt | nt
O=C(NNc1ccc(Cl)cc1)C1CCC1 | nt | nt | nt | nt | 93 | i | 0.92
COc1ccccc1NC(=O)NCCN1C(=O)C2C3C=CC(C3)C2C1=O (stereo unspecified) | 8 | -3.4 | nt | nt | 101 | i | 1.4
O=C1C2CC=CCC2C(=O)N1c1ccc(NCCc2ccccc2)c([N+](=O)[O-])c1 (stereo unspecified) | -1 | -1.5 | -73 | 74 | 102 | i | 0.74
O=c1c(-c2ccc(Cl)cc2)cnc2n1CCS2 | -1 | nt | 5 | 91 | 96 | i | 0.98
COC(=O)CCC(=O)NNC(=O)c1cccc(Cl)c1 | -11 | -1.5 | 10 | 99 | 95 | i | 1
CCCCCOc1ccc(OC(=O)c2ccncc2)cc1 | -20 | -1.3 | nt | nt | 92 | i | 0.79
CCOc1ccc(C(=O)NCCCN2CCCC2=O)cc1 | -4 | -0.4 | 45 | 82 | 101 | i | 1.1
Cc1ccc(NC(=O)CN(C)C(=O)COc2ccc(C(=O)c3ccc(F)cc3)cc2)cc1 | 14 | -0.9 | 0 | 72 | 202 | i | 0.95
COC(=O)c1sc2nc3c(cc2c1N)COC(C)(C)C3 | -3 | -2.2 | 32 | 78 | 94 | i | 1
COc1ccc(NC(=O)c2ccsc2NC(C)=O)cc1 | -4 | nt | -118 | 171 | 105 | i | 1.1
CN(Cc1ccc(-n2cccn2)cc1)Cc1cn(C)nc1-c1ccccc1F | -5 | nt | nt | nt | 96 | i | 1.1
COc1cc(NC(=O)CSc2nc(C)cc(C)n2)cc(OC)c1OC | 0 | nt | nt | nt | 102 | i | 0.94
COc1ccccc1NC(=O)C1CC(=O)N(c2ccc(F)cc2)C1 (stereo unspecified) | -1 | -2.1 | -9 | 168 | 100 | i | 0.99
Cc1ccc(NCc2ccco2)cc1C | -8 | nt | nt | nt | 101 | i | 0.91
CCS(=O)(=O)N1CCC(C(=O)NCCN2CCOCC2)CC1 | -9 | -2.0 | -11 | 111 | 119 | i | 1.1
O=S(=O)(NCCc1ccncc1)c1ccc(S(=O)(=O)N2CCCCCC2)cc1 | 0 | -0.4 | nt | nt | 103 | i | 0.8
COc1ccccc1NC(=O)CSc1nnc(CSc2nc(C)cc(C)n2)o1 | -5 | nt | nt | nt | 112 | i | 0.93
CN(C)C=Nc1ccc2nn(-c3ccccc3)nc2c1 | 0 | 0.7 | nt | nt | 108 | i | 0.9
COc1ccc(N(CC(=O)NCCC2=CCCCC2)S(C)(=O)=O)cc1OC | -4 | -0.8 | -19 | 112 | 104 | i | 0.87
CC(C(=O)Nc1ccc(S(=O)(=O)N2CCOCC2)cc1)N1C(=O)C2CC=CCC2C1=O (stereo unspecified) | -1 | nt | nt | nt | 111 | i | 0.78
O=c1nc(N/N=C/C=C/c2ccccc2)cn[nH]1 | nt | nt | nt | nt | 90 | i | 0.92
O=C(CCNS(=O)(=O)c1cccc2nsnc12)NCc1ccccc1Cl | 2 | nt | -50 | 80 | 92 | i | 1.1
COc1cc(S(=O)(=O)N2CCCCCC2)c(OC)cc1Br | 2 | -3.0 | nt | nt | 101 | i | 1
CC(C)(C)NCc1cc(Cl)ccc1OCc1cccs1 | 8 | -0.5 | nt | nt | 85 | i | 0.92
Cn1nc(OCc2ccccc2)ccc1=O | -17 | -1.1 | -106 | 112 | 83 | i | 0.94
CC(=O)NC(=O)c1cnn(-c2ccccc2)c1N | nt | nt | nt | nt | 104 | i | 1.1
COc1ccc(Nc2nnc(SCC(=O)c3cc4ccccc4o3)s2)cc1 | nt | nt | nt | nt | 107 | i | 1.1
Cc1cccc(OCCCC(=O)Nc2ccc(S(N)(=O)=O)cc2)c1 | -1 | nt | 40 | 96 | 131 | i | 0.98
Cn1c(=O)c2c(nc(N/N=C/c3ccco3)n2C)n(C)c1=O | -5 | nt | nt | nt | 75 | i | 0.91
COc1cccc(C(=O)N(Cc2nc(-c3ccc(C)cc3)no2)C(C)C)c1 | -1 | -1.5 | -256 | 80 | 101 | i | 0.99
O=C(CN1C(=O)CC(c2ccco2)Sc2ccccc21)Nc1ccccc1F (stereo unspecified) | 12 | -3.4 | nt | nt | 99 | i | 1.1
